Assay outcomes: PubChem BioAssay, National Center for Advancing Translational Sciences (NCATS)
TRPML1 blocker: human mucolipin-1 channel inhibition | Q9GZU1 | AID 624415 | 390,000 tested, 0.02% active | activity change, negative = inhibition, % (no concentration beside the values) | TRPML1-inducible cells, Ca2+ dye fluorescence, FDSS; hits give low values; inhibition of EC80 agonist-evoked calcium signal; in the data active means activity change below about -50%; inconclusive means about -30% to -50%; inactive means above about -30%;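 further: stimulus is agonist 54-4 at its EC80 concentration; on the % scale 0 is the no-effect control and ±100 the full control effect; compound concentration not given in the record; the text of the record puts the active cut at -80%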
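TRPML1-DL cells, Tet-induced overnight (~16 h, 37 °C) at 1,500 cells/well, were loaded with Ca8 no-wash dye plus quencher for 45-90 min at room temperature. Compounds were pinned during FDSS kinetic reading; agonist 54-4 at EC80 (4 uM final) then added.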
gsp antag: antagonizes gsp, the McCune-Albright syndrome mutation | 340,000 tested, 0.4% active | gsp-mutant cells, cAMP HTRF, 30 min; control for the full effect not named in the record | Potency, µM (highest dose often 76.9 µM), for the others: at the top dose activity change, negative = inhibition, most hits filed as inhibitors | AID 624288; active = falling curve of any shape with a large fitted effect; inconclusive = falling curve, mostly with a smaller effect; inactive = flat or rising curve; cell line not stated here;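 further: intracellular cAMP measured with PDE inhibitor Ro 20-1724 present during compound exposure; potency means the concentration at half of the fitted maximal effect; on the % scale 0 is the no-effect control and ±100 the full control effect; nearly all actives have a fitted effect of over 65% in size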
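Measurement of cellular cAMP by homogeneous time-resolved fluorescence following a 30 min compound exposure at 37C. The PDE inhibitor […] was present throughout; the assay buffer was DPBS with 0.05% BSA and 0.005% Tween 20.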
Menin-MLL FL inh: displaces fluorescein MLL peptide from human menin | AID 1766 | FP activity change, % at 61.4 µM | 290,000 tested, under 10 active | Fluorescence polarization, fluorescein-MLL peptide displacement from menin; inconclusive = falling polarisation curve, or a change in total fluorescence; inactive = total fluorescence flat and polarisation flat or rising; no compound was filed as active; the % refers to the polarisation; negative = inhibition;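 further: % of control where 0% means no effect; inhibitors lower the polarisation; unlabelled MLL peptide was the positive control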
gsp agonist: activates gsp, the McCune-Albright syndrome mutation; Potency, µM (top dose mostly 76.9 µM), for inactives: at the highest dose activation (cAMP increase), actives largely listed as activators; 340,000 tested, 0.13% active; gsp mutant cells, cAMP HTRF, 30 min; control for the full effect not named in the record; active = well fitted activation curve with a large enough effect; inconclusive = small, poorly fitted or top-dose-only effect, or another doubt; inactive = no such curve, though single readings can be large or run the other way; cell line not stated here;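 further: phosphodiesterase inhibitor Ro 20-1724 added with compounds to block cAMP breakdown; potency means the concentration at half of the fitted maximal effect; nearly all actives have a fitted effect of over 60% in size; about a fifth of the inactives were tested at one dose only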
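Cells stably selected in G418 were plated at 2000/well, grown 16-24 hr, then given compounds in DMSO with the PDE inhibitor […] (300 uM solution added) for 30 min at 37C; cAMP was read by HTRF.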
Sfp inh: Sfp phosphopantetheinyl transferase inhibition. Potency, µM, for the others: max response, negative = inhibition, most hits filed as inhibitors. Q9F4F7. Biochemical Sfp PPTase activity, qHTS. 310,000 tested, 3.5% active; active means well fitted inhibition curve with a large enough effect; inconclusive means small, poorly fitted or top-dose-only effect, or another doubt; inactive means no such curve, though single readings can be large or run the other way;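 further: the enzyme is Sfp with the accession as filed and its product quenches rhodamine fluorescence; potency means the concentration at half of the fitted maximal effect; 0% = enzyme reaction without inhibitor and -100% = no enzyme wells; top concentration of the series not given in the record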
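With Hepes-Na pH 7.6 buffer containing 10 mM MgCl2, Sfp (15 nM) modified BHQ-2-YbbR (12.5 uM) using rhodamine-CoA (5 uM). Two reads 30 minutes apart at 525/598 nm yielded each well's rate.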
ClpP mod: qHTS Assay for Activators of ClpP; 340,000 tested, 1.9% active; AID 651965, 2013; ATP-dependent Clp protease proteolytic subunit (Bacillus subtilis (strain 168)), P80244; purified B. subtilis ClpP, FRET peptide cleavage, 20 min; Potency, µM (titrated, usually from 57.5 µM), for the others: top-dose activity change, negative = active; active = well fitted falling curve with a large enough effect; inconclusive = small, poorly fitted or top-dose-only effect; inactive = no such curve, though single readings can be large or run the other way; further: potency means the concentration at half of the fitted maximal effect; the source files actives as falling curves though it sought activators and does not explain the sign; nearly all actives have a fitted effect of over 65% in size; many hits overshoot -100%
Target sequence (P80244 whole entry, looked up): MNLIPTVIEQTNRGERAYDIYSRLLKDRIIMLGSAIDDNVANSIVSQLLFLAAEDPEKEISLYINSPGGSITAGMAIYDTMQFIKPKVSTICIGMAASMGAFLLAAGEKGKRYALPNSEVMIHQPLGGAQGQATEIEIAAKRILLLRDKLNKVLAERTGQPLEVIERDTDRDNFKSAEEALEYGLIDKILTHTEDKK
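Buffer: 100 mM Tris/HCl pH8, 100 mM KCl, 0.05% low protease BSA, 2.5% glycerol, 0.01% Tween-20. ClpP 10 microg/mL final; 20 min RT; delta FRET normalized to ADEP and DMSO controls.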
TRPV1 PAM: potentiators of human vanilloid receptor 1 (TRPV1); Q8NER1; potentiation, % at 8.33 µM; TRPV1-expressing cells, Fluo-8 calcium influx, capsaicin EC20 potentiation; host cell line not named in the record; control for the full effect not named in the record; 320,000 tested, 0.02% active; active means potentiation above 80%; inconclusive means 30% to 80%; inactive means below 30%; further: 0% is about no effect
Target sequence (Q8NER1 whole entry, looked up): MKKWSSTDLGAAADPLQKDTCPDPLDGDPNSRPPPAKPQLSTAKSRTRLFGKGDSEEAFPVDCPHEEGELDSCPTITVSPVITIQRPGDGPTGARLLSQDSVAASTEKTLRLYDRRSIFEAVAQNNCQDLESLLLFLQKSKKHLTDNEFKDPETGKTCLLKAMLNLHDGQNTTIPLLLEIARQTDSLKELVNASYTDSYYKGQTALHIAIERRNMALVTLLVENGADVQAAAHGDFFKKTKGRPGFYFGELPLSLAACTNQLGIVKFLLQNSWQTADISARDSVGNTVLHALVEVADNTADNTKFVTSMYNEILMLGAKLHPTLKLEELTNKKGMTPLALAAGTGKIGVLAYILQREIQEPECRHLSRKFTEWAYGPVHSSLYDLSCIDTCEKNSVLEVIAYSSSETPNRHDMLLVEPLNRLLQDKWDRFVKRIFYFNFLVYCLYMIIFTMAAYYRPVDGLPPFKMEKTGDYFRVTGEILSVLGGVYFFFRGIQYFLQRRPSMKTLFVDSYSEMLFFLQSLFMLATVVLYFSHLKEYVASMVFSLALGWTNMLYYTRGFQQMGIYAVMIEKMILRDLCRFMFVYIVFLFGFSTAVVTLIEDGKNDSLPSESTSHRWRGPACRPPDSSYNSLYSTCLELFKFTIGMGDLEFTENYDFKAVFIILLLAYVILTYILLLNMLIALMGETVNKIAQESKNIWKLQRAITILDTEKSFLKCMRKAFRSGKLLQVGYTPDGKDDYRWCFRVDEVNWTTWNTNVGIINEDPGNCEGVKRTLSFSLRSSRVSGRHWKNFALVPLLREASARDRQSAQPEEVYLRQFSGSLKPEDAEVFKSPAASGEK
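Fluo-8 calcium influx in TRPV1-expressing cells, kinetic read (ex 480/em 520 nm). Compound added and read 3 min for agonist activity, followed by capsaicin at EC20 final and 2 min further read for enhancement.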
* marks the source's active call; other numbers are inactive results; u = inconclusive; x = no result given; & = joins results of further samples; [ ] = dose if it differs, or a comment.

SMILES | TRPML1 blocker | gsp antag | Menin-MLL FL inh | gsp agonist | Sfp inh | ClpP mod | TRPV1 PAM
CCN(CC)C(=O)CSc1nnnn1-c1ccc(F)c(Cl)c1 | -2 | 1% | 1.6 | 0% | -11% | -0.2% | u
CN1CCN(CC(=O)N(C)c2nc(-c3ccccc3)cs2)CC1 | -19 | 16% | 0.8 | -13% | 3% | 0.3% | -1
Cc1cc(NC(=O)CSc2nc(C3CC3)nc3sc4c(c23)CCC(C)C4)no1 (stereo not drawn) | -5 | 6% | x | 6% | x | 0.3% | x
Cc1ccc(C)c(NC(=O)COc2coc(CN3CCc4ccccc4C3)cc2=O)c1 | 9 | -5% | x | 41%[15.4 µM] | x | x | -7
Cc1ccc(N2CC(C(=O)Nc3ccccc3OC(F)F)CC2=O)cc1 (stereo not drawn) | -10 | 9% | x | -28% | x | -0.3% | -10
CC(=O)N/C(=C/c1ccc([N+](=O)[O-])cc1)C(=O)O | -16 | 13% | 1.3 | 8%[15.4 µM] | 15% | x | -1
COc1cccc(CNCCc2c[nH]c3ccccc23)c1OCc1ccccc1F | 2 | 0% | 0.5 | u | -25% | -1.0% | -6
CC(C)(C)NC(=O)CSc1nnc(CN2CCCCCC2=O)n1-c1ccccn1 | -15 | 3% | 3.0 | 14% | 18% | -1.5% | -1
COc1ccc2nc(SCC(=O)Nc3ccc(S(=O)(=O)Nc4nccc(C)n4)cc3)[nH]c2c1 | -9 | -24% | -2.9 | 17% | 7% | -5.1% | -4
CC1(C)CCCC2(C)C(OCCO)=CC(=O)C=C12 (stereo not drawn) | 23 | x | x | u | x | -1.3% | x
O=C(CN1C(=O)NC2(CCCCCCC2)C1=O)NC1CCCc2ccccc21 (stereo not drawn) | -17 | 9% | -1.0 | u | 7% | -2.2% | -11
CCOc1ccc(N2CC(C(=O)Nc3nnc(Cc4ccccc4)s3)CC2=O)cc1 (stereo not drawn) | 10 | -5% | -0.1 | -3%[15.4 µM] | -10% | x | 13
CC(C)CC1Nc2ncnc(N3CCOCC3)c2N(Cc2ccc(Cl)cc2)C1=O (stereo not drawn) | -20&-13 | 3% | x | -22% | x | -0.6%&0.1% | x
COc1ccc(CN(C)C(=O)c2cccc(S(=O)(=O)NCc3ccccc3)c2)cc1F | 18 | x | x | 12% | x | 5.1% | x
O=C(CN1C(=O)NC2(CCCC2)C1=O)NNC(=O)c1ccc(F)cc1 | -2 | 12% | x | 5%[15.4 µM] | x | x | 1
CN(C)C(CNC(=O)c1ccc(S(=O)(=O)Nc2ccccc2F)cc1)c1ccco1 (stereo not drawn) | -10 | -2% | x | 6% | x | -7.5% | -2
Cc1ccc(OCCn2cc(/C=C3\C(=O)NN(c4ccccc4)C3=O)c3ccccc32)cc1 | 2 | -12% | 5.5 | 13% | u | 18µM* | 26
N#Cc1ccsc1NC(=O)CN1CCN(S(=O)(=O)c2ccc3ccccc3c2)CC1 | 4 | -19% | 11 | -61%[inhibitor] | -1% | -1.8% | 9
COc1ccc(CCNC(=O)COC(=O)c2cc(OC)c(OC)cc2OC)cc1 | -10 | x | 4.0 | 15%[15.4 µM] | 14% | x | 11
C[C@@H]1Cn2cnc(C(=O)N[C@@H](C)c3ccccc3)c2C(=O)N1 | -15 | x | x | 15% | x | -0.3% | x

Among those listed so far, 2 contain an NH in an aromatic ring.
SMILES | TRPML1 blocker | gsp antag | Menin-MLL FL inh | gsp agonist | Sfp inh | ClpP mod | TRPV1 PAM
COc1cccc(CNCCc2c[nH]c3ccccc23)c1OCc1ccccc1F | 2 | 0% | 0.5 | u | -25% | -1.0% | -6
COc1ccc2nc(SCC(=O)Nc3ccc(S(=O)(=O)Nc4nccc(C)n4)cc3)[nH]c2c1 | -9 | -24% | -2.9 | 17% | 7% | -5.1% | -4

The listing picks up, repeating the two entries before the break.
SMILES | TRPML1 blocker | gsp antag | Menin-MLL FL inh | gsp agonist | Sfp inh | ClpP mod | TRPV1 PAM
COc1ccc(CCNC(=O)COC(=O)c2cc(OC)c(OC)cc2OC)cc1 | -10 | x | 4.0 | 15%[15.4 µM] | 14% | x | 11
C[C@@H]1Cn2cnc(C(=O)N[C@@H](C)c3ccccc3)c2C(=O)N1 | -15 | x | x | 15% | x | -0.3% | x
COc1ccc2cc(CN(C)C(=O)CN3C(=O)NC4(CCCC4)C3=O)ccc2c1 | -11 | x | x | -14% | x | -13% | x
O=C(CCl)N(C/C=C/c1ccccc1)c1ccc2c(c1)OCCO2 | 15 | -3% | 0.6 | -26%[15.4 µM] | -12% | x | 7
COc1cccc(CC2(CO)CCCN(Cc3[nH]c4ccc(C)cc4c3C)C2)c1 (stereo not drawn) | x | 3% | -1.6 | u | -2% | -12% | 8
CCn1cc(CN2CCC(n3nccc3NC(=O)c3ccccc3OC)CC2)cn1 | -1 | -15% | x | u | 10% | 3.0% | 17
COc1ccc(N2CCN(Cc3cc4c(cc3O)CCC4)CC2)cc1 | -4 | -27% | -3.4 | -28% | -19% | -5.1% | 15
Cc1ccccc1NC(=O)Nc1ccccc1Br | -6 | 11% | 0.9 | -1% | 19% | -1.4% | -27
c1ccc(Nc2ncnc3sc4c(c23)CCC4)cc1 | 4 | 10% | 2.3 | 4% | 15% | -6.5% | -15
C[C@H](O)[C@@H]1CN2CCc3c([nH]c4ccccc34)[C@@H]2C[C@@H]1N(C)C(=O)Nc1ccccc1 | -3 | x | x | u | x | -14% | x
COCCN(Cc1cc2cc(C)ccc2n2nnnc12)C(=S)Nc1ccccc1C | u | 1% | 12 | -8% | 3% | -1.2% | -3
CCOc1cc(/C=C2\C(=N)N3N=CSC3=NC2=O)ccc1OS(=O)(=O)c1ccccc1 | -3 | -2% | 6.4 | 11%[15.4 µM] | 10% | -0.8% | -1
Cc1ncc(CO)c2c1OC(C)(C)OC2 | 9 | 0% | 3.6 | 3% | 4% | -0.5% | -1
CCOC(=O)CSc1ncc(-c2ccc([N+](=O)[O-])cc2)[nH]1 | -7 | 7% | 4.6 | -1% | 12% | -0.6% | 1
CC(C)NC(=O)C1CCCN(S(C)(=O)=O)C1 (stereo not drawn) | -7 | 6% | -2.5 | -42%[inhibitor] | -1% | 0.2% | -15
Cc1cc(C(=O)N2CCCC(C(=O)c3ccc4ccccc4c3)C2)nn1C (stereo not drawn) | 7 | -18% | -6.7 | -16% | 9% | x | -3
C=CCn1c(SCC(=O)Nc2ccc3c(c2)OCO3)nnc1-c1cc(Br)ccc1O | -1 | -25% | -6.7 | -9% | 7% | -0.8% | 29
CC(C)CCn1c(=S)[nH]c2ncccc2c1=O | 45 | 16% | 5.1 | -1%[15.4 µM] | 15% | 1.6% | -7
CSc1ccc(CCNC(=O)c2ccc(CS(=O)Cc3ccccc3Cl)o2)cc1 (stereo not drawn) | 12 | -20% | x | -14% | 8% | 2.2% | -24
CC(C)(C)c1cc(NC(=O)c2ccco2)no1 | -12 | 6% | x | 19% | 9% | -1.1% | -37
CN(CC(=O)Nc1ccccc1Cl)C(=O)COC(=O)CSc1ccc(Cl)cc1 | -6 | 5% | x | -12% | x | -1.6% | -3
O=S(=O)(c1ccccc1)N1CCC(O)(CN2CCN(c3ccccc3)CC2)CC1 | -19 | 20% | 3.0 | -2% | 4% | 0.1% | -1
O=C(CN1CCN(c2cnn(-c3ccccc3)c(=O)c2Cl)CC1)NC1CCS(=O)(=O)C1 (stereo not drawn) | 9 | 10% | x | -6% | x | 0.9% | -10
Cc1ccc(-c2[nH]c3cc(C(N)=O)ccc3c(=O)c2O)cc1 | -4 | 10% | 6.5 | u | 0% | -7.5% | 24
Cc1ccc(S(=O)(=O)N(C)c2ccc(C(=O)N(C)Cc3nc4ccccc4c(=O)[nH]3)cc2)cc1 | -15 | -17% | x | -46%[inhibitor] | x | 1.1% | -9
COc1cccc(-c2nc(N3CCC(C)CC3)c3ccccc3n2)c1O | 2 | -9% | 0.1 | -48%[inhibitor] | u | 0.9% | -16
COn1c(=O)c(-c2ccc(Cl)cc2)[n+]([O-])c2ccccc21 | 0 | 3% | -1.0 | -4% | 9% | -6.9% | 3
Cc1cc(=O)oc2cc3c(cc12)OCCN3 | 20 | 10% | 0.2 | u | -5% | -13% | 6
COCc1cc(/C=N\NC(=O)COc2ccccc2)ccc1OC | 4 | -19% | 5.7 | 2%[15.4 µM] | 7% | -0.9% | 10
COc1ccc(S(=O)(=O)N2CCN(C)CC2)cn1 | 4 | 5% | -3.5 | -16% | 2% | -1.3% | 12
Cc1ccc(CN2CN(S(=O)(=O)c3cccs3)c3nc4ccccc4nc32)cc1 | 14 | -9% | 11 | -35%[inhibitor] | -6% | -6.9% | 5
CCC1(CC)NC(=S)NC1=S | 17 | -11% | x | -7%[15.4 µM] | x | 28µM* | x
CCC(=O)c1ccc(OCC(=O)c2ccc3c(c2)NC(=O)CO3)cc1 | 21 | 40%[activator] | -0.3 | u | 6% | -0.4% | x
Cc1cccc(N2C(=O)N3[C@H]4c5ccccc5OC[C@@H]4[C@@H](c4ccccc4)[C@@]3(C)C2=O)c1 | -10 | -11% | x | -14% | x | -0.5% | x
O=C1c2ccccc2S(=O)N1c1cccc(F)c1 (stereo not drawn) | 15 | x | x | 4% | x | -2.0% | x
O=C(c1ccccc1)N1CCN(CC2CC=CCC2)CC1 (stereo not drawn) | -6 | 12% | 1.8 | -8% | u | 0.5% | -8
CCNCc1cc([N+](=O)[O-])ccc1OCC | 44 | 10% | 1.6 | 5% | 18% | -1.3% | u
CCOC(=O)c1c(/N=C/c2ccc(C)cc2O)sc2c1CCC2 | 31 | 4% | 3.9 | -190%[inhibitor] | -15% | -2.8% | -2
Oc1ccccc1/C=N/Nc1cc(N2CCCC2)nc(N2CCCC2)n1 | -6 | -20% | -1.4 | 1% | u | -4.6% | 15
